From PubChem BioAssay
D2 ag: activates the human D2 dopamine receptor; P14416; DiscoveRx PathHunter D2 beta-arrestin, luminescence, 90 min; 100% = 57 uM dopamine signal; activation, % (concentration not given with the values); 360,000 tested, 0.084% active; in the data active = activation above about 40%; inconclusive = about 15% to 40%; inactive = below about 15%; note: compound concentration not given in the record; the text of the record calls up to 30% inactive
Target sequence (P14416 whole entry, looked up): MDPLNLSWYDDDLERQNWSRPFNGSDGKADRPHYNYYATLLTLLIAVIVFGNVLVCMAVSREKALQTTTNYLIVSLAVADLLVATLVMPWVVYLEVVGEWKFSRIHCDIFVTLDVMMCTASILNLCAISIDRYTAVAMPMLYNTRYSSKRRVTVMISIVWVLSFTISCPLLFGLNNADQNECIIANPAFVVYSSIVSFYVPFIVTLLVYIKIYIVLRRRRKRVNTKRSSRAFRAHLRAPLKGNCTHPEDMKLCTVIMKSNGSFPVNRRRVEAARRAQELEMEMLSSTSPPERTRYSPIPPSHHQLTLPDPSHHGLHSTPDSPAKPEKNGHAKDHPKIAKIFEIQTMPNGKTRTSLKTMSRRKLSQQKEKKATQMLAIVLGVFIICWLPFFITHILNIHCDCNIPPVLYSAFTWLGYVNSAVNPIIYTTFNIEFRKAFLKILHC
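Agonist mode: compounds alone added to overnight-plated D2 PathHunter cells for 90 min at 37 C, with 57 uM final dopamine (EC100) defining full response. Beta-arrestin recruitment detected by chemiluminescent reagent, read after 1 h at ambient temperature.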
Six1-Eya2 inh: Six1/Eya2 interaction inhibition. Q15475+O00167. AlphaScreen GST-Six1/His-Eya2 binding, biochemical; hits give low values; control for the full effect not named in the record. activity change, % (no concentration beside the values). 360,000 tested, 0.56% active. AID 651725; in the data active = activity change below about -65%; inconclusive = about -30% to -65%; inactive = above about -30%; note: % is set by controls: 0 for no effect and ±100 for the full control effect; compound concentration not given in the record
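Six1/Eya2 binding was read as AlphaScreen signal after compounds were pinned into GST-Six1 plus His-tagged Eya2 (5X stock 250/500 nM) in pH 8.0 Tris/NaCl/TCEP buffer, beads added, then incubated 1 h, 37 C, dark.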
TRPML1 agonist: human mucolipin-1 channel agonism; Q9GZU1; TRPML1-expressing cells, Ca2+ dye fluorescence, FDSS; host cell line not named in the record; reference of the full effect not given here; activation, % (concentration not given with the values); 410,000 tested, 0.12% active; AID 624414; in the data active = activation above about 50%; inconclusive = about 30% to 50%; inactive = below about 30%; note: 0% is about no effect; the text of the record puts the active cut at 80%
Target sequence (Q9GZU1 whole entry, looked up): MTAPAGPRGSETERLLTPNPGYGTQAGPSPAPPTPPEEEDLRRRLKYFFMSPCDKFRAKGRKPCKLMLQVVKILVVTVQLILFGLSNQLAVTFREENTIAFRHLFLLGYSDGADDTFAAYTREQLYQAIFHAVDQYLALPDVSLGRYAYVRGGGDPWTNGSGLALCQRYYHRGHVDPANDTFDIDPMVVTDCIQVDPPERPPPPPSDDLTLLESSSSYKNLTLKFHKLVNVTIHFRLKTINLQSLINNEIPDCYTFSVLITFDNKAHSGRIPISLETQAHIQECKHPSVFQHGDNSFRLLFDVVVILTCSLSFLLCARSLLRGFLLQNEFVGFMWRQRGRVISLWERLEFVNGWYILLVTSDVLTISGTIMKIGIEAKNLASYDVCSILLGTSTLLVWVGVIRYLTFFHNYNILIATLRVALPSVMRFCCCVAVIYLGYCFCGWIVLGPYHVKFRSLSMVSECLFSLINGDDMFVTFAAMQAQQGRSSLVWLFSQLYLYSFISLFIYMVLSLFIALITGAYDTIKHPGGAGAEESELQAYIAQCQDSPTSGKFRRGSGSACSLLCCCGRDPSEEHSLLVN
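In this qHTS format, compounds were pin-transferred onto Ca8-dye-loaded TRPML1-DL cells induced with Tet overnight, and intracellular Ca2+ fluorescence was recorded kinetically for 110 s after a 10 s baseline. A subsequent 4uM final 54-4 (EC80) addition followed by a second 110 s read served as the antagonist phase.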
TRPML1 blocker: human mucolipin-1 channel inhibition; TRPML1-inducible cells, Ca2+ dye fluorescence, FDSS; hits give low values; inhibition of EC80 agonist-evoked calcium signal; Q9GZU1; activity change, negative = inhibition, % (no concentration beside the values); 390,000 tested, 0.02% active; in the data active means activity change below about -50%; inconclusive means about -30% to -50%; inactive means above about -30%;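 note: stimulus is agonist 54-4 at its EC80 concentration; % is set by controls: 0 for no effect and ±100 for the full control effect; compound concentration not given in the record; the text of the record puts the active cut at -80%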
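Calcium fluorescence in TRPML1-DL cells induced overnight with Tet: a 110 s read after compound pin addition, then a 110 s antagonist read after challenge with 54-4 at 4 uM final (EC80).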
D2 potentiator: human D2 receptor positive allosteric modulation | P14416 | DiscoveRx D2 beta-arrestin cells, luminescence, 90 min; 100% = 57 uM dopamine signal | potentiation, % (no concentration beside the values) | 360,000 tested, 0.23% active; active = potentiation of 50% or more; inconclusive = 30% to 50%; inactive = 30% or less;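 note: compound concentration not given in the record; tested on top of an EC20 dose of dopamine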
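D2 cells co-treated with compound plus 50 nM dopamine (EC20) for 90 min at 37 deg C to detect potentiation. Beta-arrestin recruitment was read as enzyme-fragment luminescence after 1 h at ambient temperature. Full response was set by 57 uM dopamine.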
PINK1 modulator: modulators of PINK1 expression. PINK1 immunofluorescence, high-content cytometry, 24 h. Potency, µM (titrated, usually from 76.6 µM), for the others: top-dose activation (PINK1 increase), most hits filed as activators. 410,000 tested, 0.2% active. AID 624263; active = well fitted activation curve with a large enough effect; inconclusive = small, poorly fitted or top-dose-only effect; inactive = flat fitted curve, though single readings scatter; cell line not stated here;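 note: potency is the fitted concentration of half-maximal effect; % of control where 0% means no effect; nearly all actives have a fitted effect of over 65% in size; a mitochondrial uncoupler was the plate control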
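Stable cell line, 250 cells/well, 12 h attachment; compounds pinned at 5 concentrations, 24 h; CCCP control. Fixed with nuclear dye, primary antibodies 12 h at 10 degrees C, secondary plus cell stain; laser-scanning cytometer read.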
* marks the source's active call; other numbers are inactive results; ? = inconclusive; / = not tested or not shown; & = joins results of further samples; [ ] = dose if it differs, or a comment.

SMILES	D2 ag	Six1-Eya2 inh	TRPML1 agonist	TRPML1 blocker	D2 potentiator	PINK1 modulator
COc1ccc(C(CNC(=O)c2ccc(Cl)c(NC(=O)c3cccs3)c2)N2CCCC2)cc1 (configuration not stated)	-1.7	1.8	0.3	3.1	-29.3	8.2%
COc1cccc(/C(O)=C2/C(=O)C(=O)N(c3ccccn3)C2c2ccc(OC)c(OC)c2)c1 (configuration not stated)	0.4	1.4	-0.4	-4.3	2.7	-1.2%
CCCC(=O)C1=C(O)C(C(=O)OC)C(C)(C)CC1=NCCc1ccccc1 (configuration not stated)	-3.1	-6.5	1.9	76.9	-2.6	-0.2%
NC(=S)NC1CC2CC1C1C=CCC21 (configuration not stated)	-6.0	0.0	-0.4	28.7	1.1	-1.2%
Cc1ccc(Cn2nc(C)c(NC(=O)C3(C)CC3(Br)Br)c2C)cc1 (configuration not stated)	0.3	7.9	3.2	5.6	-7.3	-3.0%
O=C(CN1CCOCC1)NN=C(c1ccccc1)c1ccccc1	-2.4	7.5	-0.1	-6.2	-0.8	0.9%
CN(Cc1nccs1)C(=O)c1ccc(OC2CCN(CCc3ccccc3)CC2)cc1	-1.6	-1.6	0.3	25.1	-38.9	-2.1%
COc1ccc(NC(=O)CN(C)C(=O)C(CCSC)NC(=O)c2ccccc2)cc1 (configuration not stated)	-2.7	7.3	-0.5	10.4	-4.9	0.0%
CCN(c1ccccc1)S(=O)(=O)c1ccc(Cl)c(NC(=O)c2ccc(=O)[nH]n2)c1	-2.1	-3.2	-0.4	4.9	-1.9	3.0%
CCN(CC)c1ccc(Nc2nc(N3CCOCC3)c3ccccc3n2)cc1	8.1	-81.3*	1.7	-5.4	15.2	-17.2%[38.3 µM]
CCOC(=O)C1CCN(c2cc3c(cc2NC(=O)c2ccc(OC)c(OC)c2)n(C)c(=O)n3C)CC1	0.5	1.2	2.4&1.2	76.4&78.5	10.1	1.7%&-0.3%
Cc1cccc(C)c1-n1nnnc1C1c2ccccc2C(=O)N1CCC(C)C (configuration not stated)	/	13.5	15.4	/	/	0.4%
Cc1ccc(NC(=O)Nc2ccc3c(c2)nnn3C)cc1C	2.7	0.1	-0.5	5.0	-1.9	0.4%
Cc1ccc(S(=O)(=O)N2CCC(C(=O)N3CCCCCCC3)CC2)cc1	-4.6	-0.7	-0.3	-4.3	-1.2	1.1%
CCC(C)NC(=O)CSC1=Nc2ccccc2C2=NC(CC(=O)NCc3ccccc3)C(=O)N12 (configuration not stated)	-0.7	9.3	0.2	3.7	-0.7	0.5%
COc1cc2c(cc1NC(=O)CN(C)Cc1cccc(OC)c1OC)oc1ccccc12	3.3	-7.7	-0.1	23.8	-4.2	2.6%
CCc1ccc(N=C2N=C(N)c3ccccc32)cc1	-0.2	33.4	-0.4	3.8	-3.6	1.0%
Cc1ccc(NC(=O)CS(=O)CC(=O)N(CC(=O)NC2CCCC2)c2cccc(C)c2C)cc1 (configuration not stated)	0.2	-0.2	0.1	-2.4	-27.1	/
O=C(NC1CCCCC1)n1c(=O)oc2ccc(Cl)cc21	-1.4	6.4	0.1	-13.2	1.9	-2.2%[38.3 µM]
COc1ccc(C)cc1NC(=O)CCS(=O)(=O)c1cc2c3c(c1)CCN3C(=O)CC2	/	/	-0.9	-13.8	/	1.2%
Cc1ccccc1C(=O)Nc1ccc(N2CCN(C(=O)c3ccco3)CC2)cc1	-1.7	-6.7	-0.8	9.6	-0.5	2.4%
Cc1ccc(NC2=CC(=O)C(=O)c3ccccc32)cc1	0.6	-20.2	0.0	-4.5	24.7	37.5%[38.3 µM]
CCn1c(CCNC(=O)c2ccc(OC)cc2)nnc1SCc1ccc(Cl)c(Cl)c1	7.9	-14.8	2.4	-1.4	-12.9	-1.5%
CCOC(=O)C1=CN(Cc2cccc(F)c2)S(=O)(=O)N(CC)C1c1cccc(OC)c1 (configuration not stated)	-0.4	5.3	-0.2	18.8	/	-0.4%
CC1(C)CC(NC(=O)c2ccc3c(c2)OCO3)CC(C)(C)N1	-0.4	-1.5	-0.2	-9.0	-8.5	-2.2%
CC(C)(C)NC(=O)COC(=O)CNC(=O)c1cc(Cl)cc([N+](=O)[O-])c1	0.2	5.8	2.2	-12.8	2.4	-0.1%
COc1cccc(NC(=O)CC(C)S(=O)(=O)c2ccc3c(c2)NC(=O)CO3)c1 (configuration not stated)	/	/	3.0	-10.7	/	-0.8%
O=C(CNC(=O)c1sc2ccccc2c1Cl)NCc1ccc(F)cc1	-1.9	6.9	3.5	-12.8	-8.5	12.5%
CCOc1cc(C)c(Cl)cc1S(=O)(=O)n1nnc2ccccc21	0.6	1.7	-0.1	-13.4	-6.1	/
Cc1ccc(-n2c(SCC(N)=O)nc3c(oc4ccccc43)c2=O)cc1	-0.3	3.3	-0.5&-0.8	-7.5&5.7	0.6	17.7%&9.5%
COc1ccc2oc(=O)cc(CN3CCN(C(=O)c4ccccc4F)CC3)c2c1	/	/	0.1	-8.3	/	0.1%
Cc1ccc(NC(=O)c2ccccc2F)cc1S(=O)(=O)N1CCCCCC1	-1.7	13.9	2.1	64.9	-0.9	0.2%
O=C(O)C1CC(=O)N(CCOc2ccccc2)C1 (configuration not stated)	-1.3	9.4	-0.6	-8.8	-28.8	1.7%
CCCC(C)C(=O)Nc1nc(C)c(-c2csc(Nc3cc(Cl)ccc3C)n2)s1 (configuration not stated)	-5.8	-2.0	0.2	13.8	-16.0	-0.3%
Cc1ccc2nc3c(cc(S(=O)(=O)c4ccccc4)c(=N)n3Cc3ccco3)c(=O)n2c1	-2.0	1.5	2.4	-2.6	-13.5	2.1%
O=C1NC(=S)N/C1=C/c1cccc2ccccc12	-13.1	-12.2	2.2	28.2	-10.2	-2.9%
Cc1ccc(C(=O)Nc2sc3c(c2C(=O)NCc2ccco2)CCCC3)cc1	-3.7	5.9	-0.2	-6.3	-8.2	3.3%
C#CCOCCOCCOCCNc1nc(N2CCN(C(=O)CCCCCCCCCCNC(=O)[C@H](CCCCN)n3cc(CCCC(=O)O)nn3)CC2)nc(N2CCN(C(=O)CCCCCCCCCCNC(=O)[C@@H]([C@H](C)O)n3cc(C)nn3)CC2)n1	-7.5	-6.3	-0.3	11.1	-12.3	-0.7%
C=CCn1cn[nH]c1=S	-2.9	-2.2	-0.2	5.0	-11.8	4.8%
COc1ccc(OC)c(N2CC(O)=C(c3nc4ccccc4s3)C2=N)c1	-1.0	-8.7	-0.4	-8.4	28.4	0.0%
COc1ccccc1CNC(=O)COC(=O)/C=C/c1cccs1	0.3	4.7	0.2	4.6	2.4	1.5%
Cc1ccc(NC(=O)Cn2c(=O)c(C(F)(F)F)nc3ccccc32)c(C)c1	/	/	-0.7	0.5	/	-0.5%
CCC(=O)/C=C1/Sc2ccccc2N1CC	3.5	-4.4	2.0	-3.5	-4.6	4.0%
COc1ccc(CCNC(=O)c2ccc3c(c2)N(Cc2ccc(F)cc2)CCS3)c(OC)c1	-3.1	-20.7	-0.3	-6.3	-12.7	2.4%
Cn1cc(S(=O)(=O)N2CCCC2)cc1C(=O)NCc1ccccc1	2.1	1.9	-0.5	16.2	-2.3	0.2%
CCOC(=O)C(CC(C)C)CP(=O)(O)CNC(=O)OCc1ccccc1 (configuration not stated)	-4.3	10.9	-1.1	-10.0	3.3	0.1%
Cc1ccc(NC(=S)N2CCCC(CO)C2)c(C)c1 (configuration not stated)	-6.6	7.8	-0.3	3.2	-3.8	-1.7%
Cc1cccc(CN(CC(=O)N/N=C/c2cccs2)S(=O)(=O)c2ccc(Cl)cc2)c1	-1.2	2.1	3.0	56.0	-12.4	17.4%
Cc1ccc(OCCC(=O)NNC(=O)c2ccncc2)cc1	-2.7	-1.0	-0.2	1.6	2.9	1.1%
O=C(CCC(=O)N1CCN(Cc2ccc(F)cc2)CC1)Nc1nnc(C2CCCCC2)s1	0.2	2.7	-0.6	7.2	-6.0	0.1%

Records above that bear a hit mark in Six1-Eya2 inh.
Molecule	D2 ag	Six1-Eya2 inh	TRPML1 blocker	D2 potentiator	PINK1 modulator
CCN(CC)c1ccc(Nc2nc(N3CCOCC3)c3ccccc3n2)cc1	8.1	-81.3*	-5.4	15.2	-17.2%[38.3 µM]

Further structures.
SMILES	D2 ag	Six1-Eya2 inh	TRPML1 agonist	TRPML1 blocker	D2 potentiator	PINK1 modulator
Cc1cnn(-c2nc(-c3ccccc3)cc(-c3ccccc3)n2)c1	-0.6	4.5	0.6	36.8	-10.1	2.8%
COc1ccc(-n2c(=S)[nH]c3cc(C(=O)Nc4cc(C(N)=O)ccc4OC)ccc3c2=O)c(OC)c1	-9.0	-13.8	-1.4	35.0	-1.6	0.5%
CCC(=O)N1CCCC(C(=O)NS(=O)(=O)c2cc(C)c(Cl)cc2C)CC1 (configuration not stated)	-4.3	12.6	0.0	/	-7.5	-0.6%
O=C1OC[C@H]2CCCN2C(=O)[C@@H](CC(=O)N(CCO)Cc2ccccc2)C/C=C\C[C@H]1Cc1ccc(F)cc1	1.6	0.5	-0.4	12.5	/	-0.8%
COC(=O)[C@H](CC(C)C)NC(=O)CC[C@H]1O[C@@H](n2ccc(=O)[nH]c2=O)[C@H](O)[C@@H]1O	3.7	19.5	-0.3	-10.4	0.1	2.3%
CCc1nc2c(OCC3COc4ccccc4O3)cccn2c1N(C)C(=O)c1ccccc1F (configuration not stated)	6.8	-8.1	-0.2	/	-6.4	1.0%
O=C(Nc1ccc2nc(SCC(=O)N3CCc4ccccc43)sc2c1)c1ccc(F)cc1	/	/	1.6	4.4	/	11.7%
COc1ccc(S(=O)(=O)N2CCc3ccccc32)cc1C(=O)O	-2.3	1.2	-0.6	-14.4	-5.3	0.2%
CC(C)[C@@H](C(=O)NCc1ccco1)N1C(=O)N2CCc3c([nH]c4ccccc34)[C@@]2(C)C1=O	6.8	-7.9	/	/	-13.8	2.8%
Cn1cc(/C=N/Nc2ccccc2)c2ccccc21	1.6	-1.2	2.1	-1.7	-17.1	1.5%
O=C(c1cccnc1)N1C2CCC1CC(O)(c1ccc(F)cc1)C2 (configuration not stated)	0.7	0.0	0.4	3.4	-24.0	/
O=S(=O)(c1ccc(S(=O)(=O)N2CCN(C3CCCCC3)CC2)cc1)N1CCCCCC1	-1.4	6.6	0.2	-16.3	-2.7	6.7%[38.3 µM]
FC(F)(F)c1nc2nc(Cl)c(Cl)nc2n1CCCN1CCOCC1	-4.3	-16.5	0.4	-1.8	-21.9	1.2%
O=C(COC(=O)c1ccco1)NC12CC3CC(CC(C3)C1)C2	-3.9	-1.4	-0.1	-17.4	-19.4	-0.1%
S=C1NCCN1CC1CCN(CCCC2CCCC2)CC1	-0.1	1.7	-0.9	-8.7	-17.4	-0.6%
COc1ccc(OCC(=O)NC(=O)c2ccccc2)c([N+](=O)[O-])c1	-3.4	-0.1	-0.5	6.3	-3.2	-0.1%
N#CCC(=O)N/N=C/c1ccc(OS(=O)(=O)c2ccccc2)cc1	-0.7	-3.2	-0.6	-12.6	-1.5	4.4%[38.3 µM]
CCOc1ccc(NC(=O)c2ccccc2C(=O)c2ccccc2)cc1OCC	3.5	6.0	/	/	?	1.3%
